# RVFV N-RNA inh – inhibitors of RVFV nucleoprotein–RNA binding, primary screen, biochemical, fluorescence polarization. P21700. RVFV N-RNA binding; stronger effect = lower value. % bound, % (test concentration not listed). actives 0.1% (n = 20,000). AID 651828, 2012;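 active means between 0 and 58% in either replicate with normal brightness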;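 further: 100 nL library stock added to about 12 µL; 100% = protein and probe without compound and 0% = probe alone; numbers are from one replicate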
# Target sequence (P21700 whole entry, looked up): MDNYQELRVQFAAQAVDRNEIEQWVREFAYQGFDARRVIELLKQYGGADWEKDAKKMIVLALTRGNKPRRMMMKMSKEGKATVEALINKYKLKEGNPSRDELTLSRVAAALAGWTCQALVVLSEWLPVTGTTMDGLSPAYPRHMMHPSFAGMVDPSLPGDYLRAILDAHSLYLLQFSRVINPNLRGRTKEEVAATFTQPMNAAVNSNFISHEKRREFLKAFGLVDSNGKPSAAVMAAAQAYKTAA
# * hit, by the source's call; & = joins results of further samples. Only part of the results is shown. The share of hits here may be higher or lower than overall.
SMILES,RVFV N-RNA inh
Cc1cc(=O)n2[nH]c(SCc3ccc(Cl)cc3)nc2n1,86
CC1(C)CCc2cc(CN3CCN(c4ccc(C(F)(F)F)cn4)CC3)ccc2O1,95
N#CC(C#N)=CNNc1ncnc2ccsc12,99
COC(=O)C(Cc1ccc(O)cc1)NC(=O)NC12CC3CC(CC(C3)C1)C2 (stereo not given),94
Cc1ccnc2c1NC(=O)c1cccnc1N2C1CC1,95&99
O=c1cc(N2CCOCC2)oc2c(-c3ccccc3)cccc12,105&100
Cc1ccc(C)c(NC(=O)C(C)N2C(=O)C3C4C=CC(C4)C3C2=O)c1 (stereo not given),99
COc1ccc(N(C(C)C(=O)N=Nc2c(O)[nH]c3ccccc23)S(C)(=O)=O)cc1 (stereo not given),90
Cc1ccc(S(=O)(=O)NC(=O)N2CC3CC(C2)c2cccc(=O)n2C3)cc1 (stereo not given),92
N#CCN(CC#N)C(=O)Cc1ccc(Br)cc1,102
Cn1c(NC(=O)Cc2ccc(F)cc2)nc2ccccc21,93
N=c1oc2ccc(Cl)cc2cc1C(N)=O,97
CC(C)(C)[C@]1(O)CCN2C[C@H]3c4ccccc4CCc4cccc(c43)[C@@H]2C1,97&96&98
Cc1ccc(C(=O)NCCc2csc3nc(-c4cccc(C)c4)nn23)cc1,91
O=C(O)CCC(=O)NC1CCCCCCC1,88
O=C(O)CCC(C(=O)O)N1C(=O)c2ccccc2C1=O (stereo not given),97
OCCNC(=S)Nc1ccc(Cl)cc1,95
O=C(CN1CCOCC1)NN1C(=O)c2cccc3cccc(c23)C1=O,100
Cc1cc(C=C2C(=O)C=CC2=O)cc(C)c1O,101
COc1ccccc1NC(=O)/C=C/c1cn(CCC#N)nc1-c1ccc(Cl)cc1,101
CC(C)(C)OC(=O)N1CCN(CCNC(=O)Nc2cc(Cl)cc(Cl)c2)CC1,92
CSc1ccc2c(c1)C(N1CCN(C)CC1)Cc1ccccc1S2 (stereo not given),95&102
CC(C)(O)C#Cc1ccccc1C(=O)NC(CC(N)=O)C(=O)O (stereo not given),99
O=C(CO)Nc1cccc(NC(=O)CO)n1,96
COc1cc(Br)cc(C=Nc2cc(C)on2)c1O,92

# Other compounds follow:
SMILES,RVFV N-RNA inh
Cc1ccc(-n2nnc3c(=O)n(CC(=O)N4CC(C)OC(C)C4)cnc32)cc1Cl (stereo not given),93
CCOC(=O)c1c(NC(=O)c2ccco2)sc2c1CC(C)(C)NC2(C)C,99
O=S(=O)(Nc1ccc2c(c1)N(S(=O)(=O)c1cccs1)CCC2)c1cccs1,91
COc1ccc(OC)c(S(=O)(=O)N2CCn3cccc3C2c2ccc(Cl)cc2Cl)c1 (stereo not given),91
CCOC(=O)C1CCN(/C=C2/C(=O)NC(=O)N(Cc3ccco3)C2=O)CC1,104
N#CC(C(=O)c1ccccc1Cl)=C1SCCS1,99
CNC(=O)c1ccccc1COC(=O)c1cccs1,100
N#CC(C#N)=CNc1ccccc1N,111
CC(C(=O)O)c1ccc(CC2CCCC2=O)cc1 (stereo not given),94&97
COCCn1ccc2c(OCC(=O)Nc3cccc(NC(C)=O)c3)cccc2c1=O,100
Oc1ccc2ccccc2c1CN1CCN(C/C=C/c2ccccc2)CC1,98
CCSc1cnn(C)c(=O)c1SCC,101
COc1ccccc1-n1nnnc1SCc1ccccc1,98
OC(CNCCNc1ccc(C(F)(F)F)cn1)Cn1ccc2ccccc21 (stereo not given),94
CN1C(=O)C/C(=N\O)N(C)C1=O,96
O=C(Nc1nnc(CCN2CCOCC2)s1)c1ccc(Cl)cc1,99
COc1ccc(NC(=O)CC(c2ccccc2)c2ccco2)cc1 (stereo not given),96
CCN(CC)C(=O)CC(c1ccccc1)c1ccco1 (stereo not given),86
CCC(=O)NC(=S)Nc1cccc(Cl)c1N1CCOCC1,99
O=C(CCc1ccccc1)NN1CCOCC1,85
CO/N=C(\C(=O)N[C@@H]1C(=O)N2C(C(=O)O)=C(COC(C)=O)CS[C@H]12)c1csc(N)n1 (stereo in doubt),95
CS(=O)(=O)Nc1ccc([N+](=O)[O-])cc1Oc1ccccc1,98&95
C/C(=C\C(=O)c1ccc(C)cc1)N1CCOCC1,93
O=C1NC(=O)N(c2ccccc2)C(=O)/C1=C/c1ccccc1,102
Cc1ccc(N2CC(=O)N(N)CC2=O)cc1,94

# Laid out differently: 22 of the compounds above.
smiles | RVFV N-RNA inh
Cc1cc(=O)n2[nH]c(SCc3ccc(Cl)cc3)nc2n1 | 86
CC1(C)CCc2cc(CN3CCN(c4ccc(C(F)(F)F)cn4)CC3)ccc2O1 | 95
N#CC(C#N)=CNNc1ncnc2ccsc12 | 99
COC(=O)C(Cc1ccc(O)cc1)NC(=O)NC12CC3CC(CC(C3)C1)C2 (stereo not given) | 94
Cc1ccnc2c1NC(=O)c1cccnc1N2C1CC1 | 95&99
O=c1cc(N2CCOCC2)oc2c(-c3ccccc3)cccc12 | 105&100
Cc1ccc(C)c(NC(=O)C(C)N2C(=O)C3C4C=CC(C4)C3C2=O)c1 (stereo not given) | 99
COc1ccc(N(C(C)C(=O)N=Nc2c(O)[nH]c3ccccc23)S(C)(=O)=O)cc1 (stereo not given) | 90
Cc1ccc(S(=O)(=O)NC(=O)N2CC3CC(C2)c2cccc(=O)n2C3)cc1 (stereo not given) | 92
N#CCN(CC#N)C(=O)Cc1ccc(Br)cc1 | 102
Cn1c(NC(=O)Cc2ccc(F)cc2)nc2ccccc21 | 93
N=c1oc2ccc(Cl)cc2cc1C(N)=O | 97
CC(C)(C)[C@]1(O)CCN2C[C@H]3c4ccccc4CCc4cccc(c43)[C@@H]2C1 | 97&96&98
Cc1ccc(C(=O)NCCc2csc3nc(-c4cccc(C)c4)nn23)cc1 | 91
O=C(O)CCC(=O)NC1CCCCCCC1 | 88
O=C(O)CCC(C(=O)O)N1C(=O)c2ccccc2C1=O (stereo not given) | 97
OCCNC(=S)Nc1ccc(Cl)cc1 | 95
O=C(CN1CCOCC1)NN1C(=O)c2cccc3cccc(c23)C1=O | 100
Cc1cc(C=C2C(=O)C=CC2=O)cc(C)c1O | 101
COc1ccccc1NC(=O)/C=C/c1cn(CCC#N)nc1-c1ccc(Cl)cc1 | 101
CC(C)(C)OC(=O)N1CCN(CCNC(=O)Nc2cc(Cl)cc(Cl)c2)CC1 | 92
CSc1ccc2c(c1)C(N1CCN(C)CC1)Cc1ccccc1S2 (stereo not given) | 95&102

# Further results.
SMILES,RVFV N-RNA inh
CNC(=O)c1cc(Cl)ccc1I,89
CCCCCCCc1c(O)c2cccc3c2n(c1=O)CCC3,97
S=c1[nH]nc2n1CCCN2,107
CCNS(=O)(=O)c1ccc(NC(=O)Cc2ccc(OC)cc2)cc1,97
COC(=O)c1ccc(NC(=S)NC2CC2)cc1,96
Cc1ccc(CSc2n[nH]c(N)n2)cc1,93
COc1ccc(C(CC(=O)NCc2ccco2)Sc2n[nH]c(-c3ccc(Cl)cc3)n2)cc1 (stereo not given),97
O=C(CCS(=O)(=O)c1ccc(F)cc1)Nc1ccccc1,93
O=C(COc1coc(CN2CCc3ccccc3C2)cc1=O)N1CCCC1,99
COC(=O)C(C(=O)N1CCCc2ccccc21)C1CCCC1 (stereo not given),94
O=C(c1ccc(Cl)cc1)c1cnc2ncccn12,89
CCC(C)N(C)C(=O)c1cc2ccccc2c(-c2ccccc2Cl)n1 (stereo not given),94
COCCc1ccc(OCC(O)CNC(C)C)cc1 (stereo not given),99&107
O=C1c2cccc3cccc(c23)C12OCCS2 (stereo not given),110
O=C(O)c1ccccc1-c1ccccc1C(=O)NCCN1CCNC1=O,111
O=C(NNc1nccc(C(F)(F)F)n1)Nc1cccc(Cl)c1,94
CC[C@@H]1C=CC=CC[C@H](C)[C@@H](O)[C@@H](C)C(=O)[C@H](C)[C@@H](O)[C@H](C)C(=O)[C@H](C)[C@@H](O)[C@H](C)C=CC(=O)O[C@H]2[C@@H](C)[C@@H](CC1)O[C@@]1(CC[C@@H](C)[C@@H](C[C@H](C)O)O1)[C@@H]2C,96
O=C(CCc1n[nH]c(=O)[nH]c1=O)Nc1cccc(Br)c1,111
OC(CON=C1c2ccccc2-c2ccccc21)CN1CCN(c2ccccn2)CC1 (stereo not given),94
Cc1ccc(C(O)C(=O)c2cccs2)o1 (stereo not given),98
CN1CCC(N(C)C(=O)Nc2ccc(Cl)c(Cl)c2)CC1,111
CCC(CC)C(=O)Nc1nc2ccc(OC)cc2s1,96
CC12CN3CCN(CC(C3)/C1=N\O)C2,92
CCNC(=O)Oc1noc2ccc(C)cc12,96
CN(C)S(=O)(=O)c1ccc(NC(=O)Nc2ccccc2)cc1,97

# Later entries.
SMILES,RVFV N-RNA inh
CCN(CC)CC(=O)Nc1ccccc1-c1nc2ccccc2[nH]c1=O,97
CN(C)CCn1c(-c2ccccc2)cc(=S)c2c1CCCC2,96
CC(=O)NC12CCC3CC(CC(C3)C1)C2,89
C=CCN(CC=C)C(=S)Nc1ccc2c(C)cc(=O)oc2c1,98
CC1CC(C)CN(C(=O)c2cc3cccnc3n(Cc3ccccc3)c2=O)C1 (stereo not given),95
C=CCn1c(=O)c2c(nc(-c3ccc(S(=O)(=O)O)cc3)n2C)n(C)c1=O,106
Cc1cccc(NC(=O)C2=CC(=O)C3C=CC=CC3O2)c1C (stereo not given),96
Cc1nn(-c2ccccc2)c2ncc(C(=O)N3CCN(C)CC3)c(Cl)c12,96
CC1=CCC(C(=O)O)C(C(=O)O)C1 (stereo not given),98
N=C1/C(=C\c2cn(CCOc3ccccc3Cl)c3ccccc23)C(=O)N=C2SC=NN12,83
COc1ccc(CC(=O)N2CC(C)OC(C)C2)cc1 (stereo not given),100
O=C(CN1C(=O)C2CC=CCC2C1=O)NC1CCCCC1 (stereo not given),98
OCC(O)[C@@H](O)CO (stereo not given in full),101
O=C(Cc1cccs1)Nc1c[nH]c(=O)[nH]c1=O,94
CC(=O)Nc1ccc(NC(=O)COc2ccc(C)c(C)c2)cc1,87
CCn1c(CNC(=O)c2cccs2)nnc1SCC(=O)NO,94
Cc1cccc(NC(=O)Cn2nnc(C(=O)NCc3ccc4c(c3)OCO4)c2N)c1C,95
CCOC(=O)c1nn(-c2ccccc2)c(=O)cc1OCC(=O)Nc1ccc2c(c1)OCCO2,91
CC(=O)O[C@H]1CC2(C)[C@@H](C[C@@H](O)[C@H]3[C@@]4(C)CC[C@@H](O)[C@@H](C)[C@@H]4CC[C@@]32C)C1=C(CCC=C(C)C)C(=O)O (stereo not given in full),96
CCCCCCCCCCC[C@@H](C[C@@H]1OC(=O)[C@H]1CCCCCC)OC(=O)[C@H](CC(C)C)NC=O,93
CC(=O)Nc1cnn(-c2ccccc2)c(=O)c1Cl,95
N#Cc1ccc(OCC(F)(F)F)c(C#N)c1OCC(F)(F)F,92
CN1CCC(NC(=O)C2CCCO2)CC1 (stereo not given),95
COc1ccc2c(c1)c(CC(=O)O)c(C)n2C(=O)c1ccccc1,96
COc1ccc(-n2cc(C#N)c(=O)n(Cc3ccccc3)c2=O)cc1,94

# Other entries:
SMILES,RVFV N-RNA inh
Clc1ccccc1N1CCN(Cc2ccsc2)CC1,105
NC(=NCCc1ccccc1)Nc1nc2ccccc2[nH]1,102
N#Cc1cccc(CS(=O)(=O)c2ccc(Cl)cc2)c1,95
CCOC(=O)c1c(C)n(-c2ccc(OC)cc2)c2ccc(Oc3ncccc3C#N)cc12,91
Cn1nc(NC(=O)COCC(=O)O)c2ccccc21,97
Cc1noc(-c2ccccc2)c1NC(=O)NCC1COc2ccccc2O1 (stereo not given),97
COc1cc(C#N)ccc1OCC(N)=O,91
CC1=C/C(=C\c2c(O)n(-c3cccc(C)c3)c(=O)[nH]c2=O)C(C)=N1,115
CC(NC(=S)Nc1ccc(S(N)(=O)=O)cc1)c1ccncc1 (stereo not given),94
CCOC(=O)c1cc(C)n(CCCN2CCOCC2)c1C,97
NC(=O)C1CCN(C(=O)Nc2cccc(Cl)c2)CC1,101
COc1cc(-c2ccc(/C=C3\SC(=N)N(c4nccs4)C3=O)o2)c(OC)cc1Cl,102
CCOc1ccc(NC(=O)CCC(C(=O)O)C(C)C)cc1 (stereo not given),94
O=C(CC1CCCCC1)Nc1ccc(F)cc1,98
O=C(O)COCC(=O)Nc1ccc(OC(F)F)cc1,100
COc1ccc(F)cc1S(=O)(=O)Nc1ccc2c(c1)oc1ccc(S(=O)(=O)N3CCCC3)cc12,92
O=C(O)C1C2C=CC(O2)C1C(=O)NCCc1cccc(Cl)c1 (stereo not given),96
Cc1nc2c3ccccc3n(Cc3ccccc3)c2s1,91
Cc1ccc(CNC(=O)c2cnc3ccccn3c2=O)cc1,106
Cc1ccc2c(c1)NNc1nncn1-2,92
CC(=O)[C@@]12O[C@](C)(c3ccccc3)O[C@@H]1CC1C3CCC4=CC(=O)CC[C@]4(C)C3CC[C@@]12C (stereo not given in full),99
COC(=O)c1ccc(S(=O)(=O)N2CCCN(Cc3ccc(F)cc3)CC2)n1C,96
O=C(CC1C(=O)NCCN1C(=O)Nc1ccccc1)Nc1ccc(F)cc1 (stereo not given),99
CSc1nnc(C)c(=O)n1COC(=O)c1ccccc1,90
Cn1ncc2c(NNC(=S)Nc3ccc(F)cc3F)ncnc21,100

# New compounds follow:
SMILES,RVFV N-RNA inh
CC1CCCCN1C(=O)NC12CC3CC(CC(C3)C1)C2 (stereo not given),97
CC(=O)N(C)c1ccc(N=Cc2ccc[nH]2)cc1,100
CN(C)c1ccc(C(=O)Nc2ccc(CN3CCS(=O)(=O)CC3)cc2)cc1,94
O=C(CCSc1nnnn1-c1ccccc1)Nc1ccc(Cl)cc1,94
CC1=Nc2c(ccc3cccnc23)C1(C)C,45*
CCN1CCN(c2nc3ccccc3nc2C(C#N)C(=O)OCc2ccccc2)CC1 (stereo not given),98
CC(C)(C)C(=O)O/N=C/c1ccc2c(c1)OCO2,99
COC(=O)C1=C(CNc2ccc(I)cc2)NC(=O)NC1c1cc(C)ccc1C (stereo not given),103
CC(=O)C(C)=O,101
O=C(O)/C=C/c1c[nH]c(=O)[nH]c1=O,94
CCn1c(=NC(=O)c2ccco2)sc2cc(Cl)ccc21,94
O=C(c1ccc(Nc2nccc(-c3cc4ccccc4s3)n2)cc1)N1CCC(N2CCCC2)CC1,99
CCS(=O)(=O)N1CCN(c2cnn(-c3ccccc3)c(=O)c2Cl)CC1,93

# Screening data from PubChem.
